# Sfp PPTase inh = qHTS Assay for Inhibitors of Bacillus subtilis Sfp phosphopantetheinyl transferase (PPTase) | 4'-phosphopantetheinyl transferase ffp (Bacillus subtilis), Q9F4F7 | Biochemical Sfp PPTase activity, qHTS | Potency, µM, for the others: max response, negative = inhibition, hits mostly inhibitors | hit rate 3.5% among 310,000 | AID 1490, 2009; active means well fitted inhibition curve with a large enough effect; inconclusive means small, poorly fitted or top-dose-only effect, or another doubt; inactive means no such curve, though single readings can be large or run the other way;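 further: the enzyme is Sfp with the accession as filed and its product quenches rhodamine fluorescence; potency means the concentration at half of the fitted maximal effect; 0% = enzyme reaction without inhibitor and -100% = no enzyme wells; top concentration of the series not given in the record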
#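 Fluorescence-quenching assay: 15 nM Sfp-PPTase preincubated 15 min at room temperature with compound, then 5 uM rhodamine-CoA and 12.5 uM BHQ-2-labelled YbbR peptide added. Fluorescence (ex 525/em 598 nm) read at start and after 30 min; difference gives rate.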
# ClpP mod = qHTS Assay for Activators of ClpP; ATP-dependent Clp protease proteolytic subunit (Bacillus subtilis (strain 168)), P80244; purified B. subtilis ClpP, FRET peptide cleavage, 20 min; Potency, µM (titrated, usually from 57.5 µM), without a hit: top-dose activity change, negative = active; hit rate 1.9% among 340,000; AID 651965, 2013; active = well fitted falling curve with a large enough effect; inconclusive = small, poorly fitted or top-dose-only effect; inactive = no such curve, though single readings can be large or run the other way; further: potency means the concentration at half of the fitted maximal effect; the source files actives as falling curves though it sought activators and does not explain the sign; nearly all actives have a fitted effect of over 65% in size; many hits overshoot -100%
# Target sequence (P80244 whole entry, looked up): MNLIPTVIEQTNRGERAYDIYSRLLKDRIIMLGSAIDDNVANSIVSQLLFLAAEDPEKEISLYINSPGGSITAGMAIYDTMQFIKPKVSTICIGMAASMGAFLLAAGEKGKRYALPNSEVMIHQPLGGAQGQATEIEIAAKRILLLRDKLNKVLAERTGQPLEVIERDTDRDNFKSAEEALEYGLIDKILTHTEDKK
#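 Buffer: 100 mM Tris/HCl pH8, 100 mM KCl, 0.05% low protease BSA, 2.5% glycerol, 0.01% Tween-20. ClpP 10 microg/mL final; 20 min RT; delta FRET normalized to ADEP and DMSO controls.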
# PINK1 expr mod = A Quantitative High throughput Screen to Identify Chemical Modulators of PINK1 Expression. hit rate 0.2% among 410,000. PINK1 immunofluorescence, high-content cytometry, 24 h. Potency, µM (titrated, usually from 76.6 µM), for the others: at the top dose activation (PINK1 increase), usual class: activators; active = well fitted activation curve with a large enough effect; inconclusive = small, poorly fitted or top-dose-only effect; inactive = flat fitted curve, though single readings scatter; cell line not stated here;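 further: potency means the concentration at half of the fitted maximal effect; % of control where 0% means no effect; nearly all actives have a fitted effect of over 65% in size; a mitochondrial uncoupler was the plate control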
#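 Readout is PINK1 immunofluorescence, quantified alongside mitochondrial, cell and nuclear markers by laser-scanning microplate cytometry. Cells from a stable line were exposed to compound titrations (5 concentrations) for 24 hours, with CCCP controls.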
# Menin MLL FP FL = qHTS Assay for Inhibitors Targeting the Menin-MLL Interaction in MLL Related Leukemias: Competition With Fluorescein Labeled MLL-derived Peptide; Fluorescence polarization, fluorescein-MLL peptide displacement from menin; FP activity change, % at 61.4 µM; 290,000 tested, under 10 active; inconclusive = falling polarisation curve, or a change in total fluorescence; inactive = total fluorescence flat and polarisation flat or rising; no compound was filed as active; the % refers to the polarisation; negative = inhibition;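 further: % of control where 0% means no effect; inhibitors lower the polarisation; unlabelled MLL peptide was the positive control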
# TRPML1 inh = qHTS for Inhibitors of the Human Mucolipin Transient Receptor Potential 1 (TRPML1). Mucolipin-1 (Homo sapiens), Q9GZU1. TRPML1-inducible cells, Ca2+ dye fluorescence, FDSS; active compounds read low; inhibition of EC80 agonist-evoked calcium signal. activity change, negative = inhibition, % (test concentration not listed). hit rate 0.02% among 390,000. AID 624415, 2012; in the data active means activity change below about -50%; inconclusive means about -30% to -50%; inactive means above about -30%;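 further: stimulus is agonist 54-4 at its EC80 concentration; on the % scale 0 is the no-effect control and ±100 the full control effect; compound concentration not given in the record; the text of the record puts the active cut at -80%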
# Target sequence (Q9GZU1 whole entry, looked up): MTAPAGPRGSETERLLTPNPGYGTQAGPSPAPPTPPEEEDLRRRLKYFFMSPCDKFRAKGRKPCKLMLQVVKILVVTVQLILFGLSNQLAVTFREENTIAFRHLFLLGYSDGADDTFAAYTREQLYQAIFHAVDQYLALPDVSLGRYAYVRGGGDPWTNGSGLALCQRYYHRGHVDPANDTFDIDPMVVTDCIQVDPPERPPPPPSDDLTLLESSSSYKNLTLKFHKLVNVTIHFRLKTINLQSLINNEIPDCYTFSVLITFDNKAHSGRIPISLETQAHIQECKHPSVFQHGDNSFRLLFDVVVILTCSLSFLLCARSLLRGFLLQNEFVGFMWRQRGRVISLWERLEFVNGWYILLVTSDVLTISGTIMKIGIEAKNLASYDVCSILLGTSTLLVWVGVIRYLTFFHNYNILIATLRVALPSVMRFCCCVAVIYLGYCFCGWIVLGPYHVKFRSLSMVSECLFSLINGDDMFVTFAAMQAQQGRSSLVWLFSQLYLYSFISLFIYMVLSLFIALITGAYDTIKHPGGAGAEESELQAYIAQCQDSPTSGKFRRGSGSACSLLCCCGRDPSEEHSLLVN
#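 Calcium fluorescence in TRPML1-DL cells induced overnight with Tet: a 110 s read after compound pin addition, then a 110 s antagonist read after challenge with 54-4 at 4 uM final (EC80).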
# TRPML1 ag = qHTS for Agonists of the Human Mucolipin Transient Receptor Potential 1 (TRPML1) | Mucolipin-1 (Homo sapiens), Q9GZU1 | TRPML1-expressing cells, Ca2+ dye fluorescence, FDSS; host cell line not named in the record; reference of the full effect not given here | activation, % (no concentration beside the values) | hit rate 0.12% among 410,000 | AID 624414, 2012; in the data active = activation above about 50%; inconclusive = about 30% to 50%; inactive = below about 30%; further: 0% is about no effect; the text of the record puts the active cut at 80%
#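 Cells: TRPML1-DL, 1X Tet inducer, ~16 h at 37 degrees C/5% CO2. Dye: ABD Ca8 no-wash + quencher, 45-90 min RT. Read: 10 s baseline, compound add, 110 s agonist phase; 54-4 EC80 (4uM final), 110 s antagonist phase.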
# TRPV1 PAM = HTS Assay for Compounds that Act as Potentiators of the Vanilloid Receptor 1. TRPV1-expressing cells, Fluo-8 calcium influx, capsaicin EC20 potentiation; host cell line not named in the record; control for the full effect not named in the record. AID 540277, 2011. Transient receptor potential cation channel subfamily V member 1 (Homo sapiens), Q8NER1. potentiation, % at 8.33 µM. hit rate 0.02% among 320,000; active means potentiation above 80%; inconclusive means 30% to 80%; inactive means below 30%; further: 0% is about no effect
#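 Cells expressing TRPV1 were dye-loaded with Fluo-8 and read kinetically: 10 s baseline, 3 min after compound (agonist portion), then 2 min after EC20 capsaicin (allosteric enhancer portion). Calcium-bound dye fluorescence at 480/520 nm.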
# An asterisk follows results filed as active; ? = inconclusive; nt = not tested or not shown; & = joins results of further samples; [ ] = dose if it differs, or a comment. Compounds as they come. Share with any hit: about 4.4%.
SMILES,Sfp PPTase inh,ClpP mod,PINK1 expr mod,Menin MLL FP FL,TRPML1 inh,TRPML1 ag,TRPV1 PAM
COc1ccc(N2C(=O)CC(N3CCN(S(=O)(=O)c4ccc(Cl)cc4)CC3)C2=O)cc1 (centres undefined),10%,nt,1.0%,-5.7,-4,0.8,-4
Cc1onc(C(=O)Nc2c(C)n(C)n(-c3ccccc3)c2=O)c1[N+](=O)[O-],79µM*,nt,-0.1%,-0.6,3,-0.7,-2
NC(=O)C1CCN(c2c([N+](=O)[O-])cc(C(F)(F)F)cc2[N+](=O)[O-])CC1,1%,0.2%,0.6%,5.3,17,0.2,-18
O=C(COc1cccc2ccccc12)Nc1cc(Cl)ccc1C(=O)O,27%,0.2%,9.6%,nt,-4,0.9,3
COCCN1C[C@@H](CO)O[C@@H](n2cnc3c(NCc4ccco4)ncnc32)C1,nt,-4.4%,1.0%,nt,nt,-0.4,nt
COc1cc(NC(=O)CCc2c(C)nc3c(-c4ccc(F)cc4)c(C)nn3c2C)cc(OC)c1OC,nt,-9.9%,6.1%,nt,50,-0.3,nt
Cc1ccc(-c2nnc(Nc3cccc(Br)c3)c3ccccc23)cc1S(=O)(=O)NCC1CCCO1 (centres undefined),nt,?,0.8%,nt,17,-0.8,nt
CCN1CCN(CC(=O)N2N=C(c3cccs3)CC2c2ccc(OC)cc2)C(=O)C1=O (centres undefined),-5%,-1.3%,-0.3%,-1.2,7,-0.3,10
Cc1ccc(S(=O)(=O)NC(C(=O)Oc2ccc3ccc(=O)oc3c2)c2ccccc2)cc1 (centres undefined),-11%,24%,3.2%,6.1,-5,1.0,-1
CCOC(=O)C1CCCN(C(=O)c2c(-c3ccccc3)noc2C)CC1 (centres undefined),nt,0.0%,0.0%,nt,nt,-0.8,nt
Cc1cc(Cl)c(S(=O)(=O)NCC2CCCO2)cc1OCC(=O)NC1CCCCC1 (centres undefined),7%,-2.3%,nt,2.1,21,0.4,5
Cc1nc(-c2ccccc2)sc1C(=O)O,12%,nt,-2.9%,0.3,-5,1.2,-7
CCc1cc(S(=O)(=O)N2CCN(C(=O)c3ccco3)CC2)ccc1OC,-1%,1.0%,-0.2%,3.7,-5,0.1,9
CC(C)(C)c1ccc(C(=O)N2CCC2(C)C(=O)NCC(F)(F)F)cc1 (centres undefined),nt,0.1%,2.4%,nt,nt,-0.7,nt
COc1ccc(C(=O)Oc2ccc(C(C)=O)cc2)c(OC)c1,14%,-1.5%,0.6%,-0.2,11,0.4,-13
c1ccc2sc(NC3=NCN(C4CCCCCC4)CN3)nc2c1,26%,-2.5%,13%[38.3 µM],2.1,-2,0.0,-6
O=C(CCc1ccccc1)N1CCCN(C(=O)CCc2ccccc2)CC1,5%,-4.7%,-3.6%,5.6,-2,0.5,2
CSc1ccc(CCNC(=O)c2cc(-c3ccccc3)c(N3CCOCC3)s2)cc1,18%,nt,1.6%,8.2,5,0.1,3
Cc1cc(C)c(NC(=O)CN(C)S(=O)(=O)c2ccc3c(c2)n(C)c(=O)c(=O)n3C)c(C)c1,15%,-15%,0.5%,0.3,-4,-1.3,-9
CCOC(=O)c1[nH]c(C)c(CCC(=O)NCc2ccccc2Cl)c1C,nt,1.7%,1.4%,nt,22,-0.5,nt
O=C1NCCN(Cc2ccc(Cl)c(F)c2)C1CC(=O)N1CCc2ccccc2C1 (centres undefined),10%,nt,-1.4%,-3.6,-11,-0.1,?
COc1ccc(CCN(C)CC(O)COc2c(C)ccc(C)c2C)cc1OC (centres undefined),-8%,-3.2%,-0.2%,-3.0,nt,nt,-12
Cc1ccc(Cn2c(=S)[nH]c3ccccc3c2=O)cc1,8%,0.7%,6.9%,-1.5,29,4.0,-19
CCS(=O)(=O)c1ncc(Cl)c(C(=O)Nc2ccc(S(=O)(=O)N(C)c3ccccc3)cc2)n1,?,4.3%,-1.9%&-1.1%,5.9,3&2,3.9&3.9,?
CC1=NN(c2cccc(Cl)c2)C(=O)C12CC(C)=C(C)CS2 (centres undefined),?,-1.7%,?,3.9,-7,0.5,-3
COc1ccc(OC)c(S(=O)(=O)N2CCC(C(=O)NCCc3ccccc3)CC2)c1,11%,0.5%,0.1%[38.3 µM],-4.0,-2,-0.6,10
COc1cccc(/C=c2\s/c(=C/C(=O)c3ccc(C)cc3)[nH]c2=O)c1OC,-5%,0.8%,?,18,-2,3.4,18
COC(=O)c1c(-c2cccs2)csc1NC(=O)c1cccnc1,?,-8.9%,-2.6%,6.3,9,1.8,-11
CC1CN(S(=O)(=O)c2ccc(C(=O)Nc3nnc(-c4ccco4)o3)cc2)CC(C)O1 (centres undefined),19%,nt,1.3%,0.8,4,0.0,3
CCN1CCN(c2ncc3c(n2)CCN(Cc2ccc(OC(C)C)cc2)C3)CC1,nt,-4.7%,-1.0%,nt,-10,-0.6,nt
COc1cccc(Cn2c(=O)n(-c3cccc(Cl)c3)c(=O)c3c4c(sc32)CN(C(C)=O)CC4)c1,nt,-1.8%,0.4%,nt,7,-0.5,nt
O=C(CSc1cn(CC(=O)N2CCCCC2)c2ccccc12)NCc1ccccc1Cl,nt,-1.6%,0.5%,nt,48,1.7,nt
COc1cccc(OC)c1C(=O)OCC(=O)NC1CCCCCC1,nt,-5.9%,0.5%,nt,15,-0.9,9
CC(=O)Nc1cc(-c2cccc(CO)c2)cn2c(-c3ccc(C(C)=O)cc3)cnc12,nt,-24%,5.0%,nt,nt,-0.4,nt
N#CC(=Cc1ccccn1)c1nc(-c2ccc(Cl)cc2)cs1,nt,25µM*,10%,nt,1,1.1,nt
Cc1ccc(NC(=O)CCCNC(=O)c2ccc(Cl)cc2)cc1S(=O)(=O)N1CCOCC1,nt,-4.7%,-0.9%,nt,18,2.7,?
COc1cc(C(=O)Nc2ccccc2C(=O)NCc2cccnc2)cc(OC)c1OC,9%,nt,1.1%,1.6,0,-0.5,-9
Cc1ccc(Cl)cc1N1CCN(C(=O)CN2C(=O)COc3ccc(S(=O)(=O)N4CCOCC4)cc32)CC1,nt,0.9%,0.2%,nt,35,2.5,nt
Cc1ccc(N2C(=O)CC(N3CCN/C3=C3\CC/C(=C\c4ccccc4)C3=O)C2=O)cc1 (centres undefined),-16%,-0.8%,1.9%,5.3,-1,2.3,11
COc1ccccc1OCCNC(=O)C(CCSC)NC(=O)c1ccccc1Cl (centres undefined),nt,0.3%,-0.9%,nt,15,0.3,14
O=C(NC(=S)NCC1CCCO1)c1ccccc1F (centres undefined),-10%,0.7%,0.1%,-0.3,7,0.4,-18
CC(NC(=O)c1ccccc1)C(=O)N/N=C/c1cccc([N+](=O)[O-])c1 (centres undefined),8%,nt,0.7%,-6.7,-7,-0.9,-10
Cc1ccc([C@H]2C(C(=O)O)=CC[C@@H](c3ccc(Cl)cc3)N2S(=O)(=O)c2ccccc2C)cc1,nt,-1.1%,-0.8%,nt,-6,-0.3,nt
COc1cc(OC)cc(-c2noc(-c3csc([C@@H]4C[C@H](O)[C@@H](CO)O4)n3)n2)c1,nt,1.3%,-0.4%,nt,nt,-0.9,nt
CCC1=C2CC[C@H]3C(=O)N(CC)C(=O)[C@H]3[C@H]2[C@@]2(Cc3ccccc3)C(=NCc3ccccc3)OC(=O)N2C1=O,19%&13%,-7.2%,-0.4%,-0.9&1.6,0,1.9,13
CCOc1ccc(N2CC(NC(=O)c3cccs3)CC2=O)cc1 (centres undefined),nt,-0.7%,1.0%,nt,-4,-0.3,nt
CC1(C(=O)NS(=O)(=O)Cc2ccccc2C(F)(F)F)CCN1C(=O)Cc1cccs1 (centres undefined),nt,-0.4%,2.5%,nt,nt,-0.6,nt
COc1ccc(-n2c(C)cc(C(=O)COC(=O)c3ccc(O)cc3O)c2C)cc1,nt,-12%,?,nt,39,2.6,-13
COc1ccc(Cl)cc1NC(=O)COC(=O)CCNC(C)=O,24%,-0.4%,-1.7%,1.9,2,-0.6,2
COc1ccc(NC(=O)Cn2ccn(-c3ccc(F)c(F)c3)c(=O)c2=O)cc1Cl,nt,-3.0%,1.0%,nt,-3,0.1,nt
N#C/C(=C\c1cccs1)C(=O)NCc1cccnc1,11%,-0.6%,-1.7%,4.4,-18,2.9,-12
CCc1ccccc1NC(=S)N1CCCCCC1,13%,-7.6%,-0.9%,nt,4,-0.2,2
CN1CCN(Cn2cc(/C=C/C(=O)c3ccccc3)c3ccccc32)CC1,-15%,-9.8%,0.1%,19,2,0.5,-3
COc1ccccc1N1CCN(C(=O)c2cc3cc(Br)ccc3oc2=O)CC1,18%,-2.8%,0.4%,6.8,10,-0.1,nt
